# Source: PubChem BioAssay
# Tg IFNy HTS: T. gondii growth inhibition under IFN-gamma; Toxoplasma gondii growth in IFN-gamma-treated host cells; hits give low values; reference of the scale not given here; activity change, negative = inhibition, %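 (about 20 µM by stock and volumes)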; 69,000 compounds, 3.8% hits;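 active means below -70%; inconclusive means fit judged invalid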;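 further: host cells are HeLa cells infected with Toxoplasma gondii; parasite growth read as luciferase light; one replicate is shown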
# * = called active by the depositor; ? = inconclusive; & = joins results of further samples.
SMILES	Tg IFNy HTS
O=C(NCc1cccs1)c1c(O)c2cccnc2n(-c2cccc(F)c2)c1=O	262
CN1C(=O)C2(CCN(C(=O)c3ccco3)CC2)c2ccccc21	-43
Cc1nc(N)sc1C(=O)NCCCc1ccco1	53
COc1ccccc1CC(=O)N(C)c1nc2c(s1)CCc1occc1-2	-3
CCCn1c(=O)c2c(nc3n2CCN3Cc2ccco2)n(C)c1=O	32
COc1ccc(OC)c(C(=O)c2oc3ccccc3c2NC(=O)CSc2ccccn2)c1	-65
COc1ccc2c3c(n(C)c2c1)[C@@H](CO)N(C(C)=O)CC31CCN(C(=O)c2cnccn2)CC1	368
CN(C)CC(=O)N1[C@H](C#N)[C@@H](c2ccc(C#CC3CCCCC3)cc2)[C@@H]1CO	1
C[C@H]1CN([C@@H](C)CO)S(=O)(=O)c2ccc(C#Cc3cccc(F)c3)cc2O[C@@H]1CN(C)S(=O)(=O)c1cn(C)cn1	-91*
NC1CC(=O)N(Cc2cccc3ccccc23)C1 (stereo not drawn)	-4
COc1ccc(C(=O)CCC(=O)N2CCC(Cc3nncn3C)CC2)cc1	6
Fc1cnc(N2CCN(Cc3cc(CN4CCCC4)cs3)CC2)nc1	-14

# Some of the entries so far, as labelled records.
CN(C)CC(=O)N1[C@H](C#N)[C@@H](c2ccc(C#CC3CCCCC3)cc2)[C@@H]1CO
  Tg IFNy HTS: 1
COc1ccc2c3c(n(C)c2c1)[C@@H](CO)N(C(C)=O)CC31CCN(C(=O)c2cnccn2)CC1
  Tg IFNy HTS: 368

# More records
SMILES	Tg IFNy HTS
Cc1noc(C)c1CN1CCC(N2CCCC2)CC1C(=O)O (stereo not drawn)	-9
CCOc1cc(C(=O)NCCc2csc(-c3cccc(F)c3)n2)cc(OCC)c1OCC	39
Cn1c(SCc2c(F)cccc2Cl)nnc1-c1csc(-c2cccs2)n1	?
COCCCNC(=O)Cn1ncc2c(N3CCOCC3)ncnc21	-32
O=C(c1ccc(Nc2nccc(-c3cc4ccccc4s3)n2)cc1)N1CCC(N2CCCC2)CC1	-71*
C=C(C)CN1CCN(C(=O)CC(C)n2cccn2)CC1 (stereo not drawn)	-2
Cc1ccc2nc(-c3ccc(NC(=O)CSc4nc5ccccc5o4)cc3)sc2c1	29
CCN1CCOCC12CCN(c1cnccn1)CC2	-45
c1coc(CN2CCC3(CC2)COCCN3CC2CC2)c1	-8
COc1ccc2c3c(n(C)c2c1)[C@@H](CO)N(C(=O)Nc1ccc(F)cc1)CC31CCN(C(=O)c2ccc3c(c2)OCO3)CC1	-11
COCCN(C)c1nc(C2CCN(C(=O)N(C)C)CC2)cc2c1ncn2C(C)C	14
CN1CCC(Cc2noc(-c3cccc(Cn4cccn4)c3)n2)CC1	-5

# Going on with the list.
SMILES	Tg IFNy HTS
CC1=CC(=O)C(C(C)C)=CC1=O	-16
COc1ncccc1-c1cn[nH]c1-c1ccsc1	7
Cc1nccc([C@H]2C[C@H]3CCN(C(=O)c4cnoc4C)C[C@@H]3O2)n1	-4
CC(=O)N1CCC(Cn2ccnc2-c2cc3ccccc3s2)CC1	-47
O=C(c1ccc(N2CCC(NCc3cnn(Cc4ccccc4)c3)CC2)cc1)N1CCOCC1	0
CCCn1nc(C)c(-c2cc(C(=O)N3CCC(O)(c4ccc(C)cc4)C3)[nH]n2)c1C (stereo not drawn)	-3
CCc1cn[nH]c1C1CCCN(Cc2cn[nH]c2C(=O)O)C1 (stereo not drawn)	5
CCn1c(C)nc2cc(NC(=O)Cn3ncc4ccccc4c3=O)ccc21	6
NC(=O)C1CCN(C(=O)c2cc(-c3ccn(CC4CC4)n3)n3ccccc23)CC1	15
COc1ccc(-c2nc(CSc3nc4c(=O)[nH]cnc4n3-c3ccc(C)cc3)c(C)o2)c(OC)c1	54
O=c1[nH]nc(CCn2ccnc2-c2ccc(-n3ccnc3)cc2)[nH]1	-41
Nc1nc(Cl)nc2c1ncn2C1OC(CO)C(O)C1F (stereo not drawn)	-78*

# Following part:
SMILES	Tg IFNy HTS
Cc1cc(S(=O)(=O)O)c2c(C)ccc(C(C)C)cc1-2	-1
Cc1cc(CN(C)C(=O)CC23CC4CC(CC(C4)C2)C3)ccn1	-47
CN[C@@H](C)C(=O)N[C@H](C(=O)N1CCC[C@H]1C(=O)Nc1snnc1-c1ccccc1)C1CCCCC1	-3
O=C(c1cc2cc(Br)ccc2o1)N1CCCC1	115
COCCC(=O)N1Cc2ccnn2CC(c2nc(C)no2)C1 (stereo not drawn)	22
CCCSc1ccc2c3c(cccc13)C(=O)N(CCc1ccc(OC)c(OC)c1)C2=O	101
CC(=O)Nc1ccc(NC(=O)C2COc3ccccc3C2)cc1 (stereo not drawn)	5
CN1C(=O)c2cc(NS(C)(=O)=O)ccc2OC[C@@H]2O[C@@H](CC(=O)N3CCOCC3)CC[C@H]21	1
COc1ccc(CN(C)C[C@@H]2Oc3ccc(NC(=O)Nc4ccc5c(c4)OCO5)cc3CC(=O)N([C@@H](C)CO)C[C@H]2C)cc1	-17
CSc1ncccc1C(=O)N1CCc2c(c(C(=O)N3CCOCC3)nn2CCC(C)C)C1	3
CCN1c2ccccc2C(=O)NC12CCN(C(=O)Nc1ccccc1OC)CC2	14
CN(C)C(=O)c1cnc2n1CCN(Cc1ccc3c(c1)OCO3)C2	3

# Carrying on.
SMILES	Tg IFNy HTS
O=C(Cn1nc2ccccc2n1)N1Cc2cnn(CCO)c2C1	-13
N#C[C@@H]1[C@@H](c2ccc(C#Cc3ccccc3F)cc2)[C@H](CO)N1C(=O)c1cccnc1	-52
COc1cccc2c1OCC(N1Cc3ncccc3C1=O)C2 (stereo not drawn)	3
CCOCC1CN(Cc2cccs2)Cc2nn(CC3CC3)cc21 (stereo not drawn)	3
CC(=O)N1CCC2(CN(Cc3cccs3)C2)OCC1C(=O)O (stereo not drawn)	0
COc1ccc(N2CCN(C(=O)c3cc4cccnc4n(Cc4ccc(F)cc4)c3=O)CC2)cc1	33
COc1ccc2n[nH]c(CN3CCN(c4ncnc5ccccc45)CC3)c2c1	-6
O=C1CC2Sc3ccccc3N=C2N1Cc1ccccn1 (stereo not drawn)	75
CS/C(N)=C(C#N)/C(C#N)=C(\N)SC	-22&5
CCN1CCNC(=O)C1CC(=O)N1CCc2[nH]nc(-c3ccccc3F)c2C1 (stereo not drawn)	8
COC(=O)c1ccc(COc2ccc3c(C)c(C)c(=O)oc3c2C)o1	15
COc1c(F)cccc1C(=O)NCc1noc(-c2ccco2)n1	0

# Next part.
SMILES	Tg IFNy HTS
C[C@@H]1CN([C@@H](C)CO)C(=O)CCCn2cc(nn2)CO[C@H]1CN(C)C(=O)c1ccc(N2CCN(C)CC2)cc1	?
O=C(CSc1nnc(Cc2ccccc2)n1Cc1ccccc1)N1CCCC1	-8
Cn1ccc(C(=O)NC2CCC23CCN(C(=O)c2ccco2)CC3)c1 (stereo not drawn)	1
CN(C)CCOc1ccccc1C(=O)N1CCC(Oc2ccccc2F)CC1	-3
CC(C)[C@@H]1C(=O)NCCC=CC[C@H](C)Oc2ccccc2C(=O)N1C (mixture of isomers)	3
O=C(CN1CCOC1=O)NCc1cnn2ccccc12	-6
Cc1cccc2cc(CN(Cc3ccccc3)C(=O)Nc3ccc(F)cc3)c(=O)[nH]c12	-104*
CN(C)C(=O)Cn1nc(-c2cccs2)n(-c2ccncc2)c1=O	-3
CCOc1ccc(S(=O)(=O)NCCc2sc(-c3ccccc3)nc2C)cc1	24
CCN1CCn2c(C)nc(C(=O)Nc3cnc4n3CCCC4)c2C1=O	4
COc1ccccc1NC(=O)N1C[C@@H](O)COC[C@H]2O[C@H](CC(=O)NCCc3ccncc3)CC[C@@H]21	20
COc1ccc(CCCNC(=O)c2ccc(N3CC(O)C3)nc2)cc1	-1

# Of the compounds above, these contain an NH in an aromatic ring.
SMILES	Tg IFNy HTS
COc1ncccc1-c1cn[nH]c1-c1ccsc1	7
CCCn1nc(C)c(-c2cc(C(=O)N3CCC(O)(c4ccc(C)cc4)C3)[nH]n2)c1C (stereo not drawn)	-3
CCc1cn[nH]c1C1CCCN(Cc2cn[nH]c2C(=O)O)C1 (stereo not drawn)	5
COc1ccc(-c2nc(CSc3nc4c(=O)[nH]cnc4n3-c3ccc(C)cc3)c(C)o2)c(OC)c1	54
O=c1[nH]nc(CCn2ccnc2-c2ccc(-n3ccnc3)cc2)[nH]1	-41
COc1ccc2n[nH]c(CN3CCN(c4ncnc5ccccc45)CC3)c2c1	-6
CCN1CCNC(=O)C1CC(=O)N1CCc2[nH]nc(-c3ccccc3F)c2C1 (stereo not drawn)	8
Cc1cccc2cc(CN(Cc3ccccc3)C(=O)Nc3ccc(F)cc3)c(=O)[nH]c12	-104*

# Continued:
SMILES	Tg IFNy HTS
O=C(Nc1ccc(C(F)(F)F)cc1)N[C@H]1C=C[C@@H](CC(=O)N2CCCCC2)O[C@H]1CO	-33
CCN(CC)C(=O)c1sc(NC(=O)c2ccc(OC)cc2)c(C#N)c1C	39
CCS(=O)(=O)N1CC(=O)N2[C@H](CO)[C@@H](c3ccc(-c4cccc(F)c4)cc3)[C@H]2C1	-8
COC(=O)c1cc2n(n1)CCCN(C(=O)CSc1nc(C)cs1)C2	37
CC(=O)Nc1ccc(S(=O)(=O)NCc2nc(-c3ccccc3)oc2C)cc1	79
COc1ccc(CC2CN(C(=O)c3cc(C(C)C)n4ncnc4n3)CCO2)cc1 (stereo not drawn)	5
CO[C@@H]1CN(C)C(=O)c2ccc(NS(=O)(=O)CC(F)(F)F)cc2OC[C@H](C)N(Cc2nccs2)C[C@H]1C	62
COc1ccc(C(C)C)cc1S(=O)(=O)N1CCc2nc(-c3cnccn3)[nH]c(=O)c2C1	-7
CS(=O)(=O)N1[C@H](C#N)[C@@H](c2ccc(-c3ccccc3F)cc2)[C@@H]1CO	7
CN(C)CC(=O)N1[C@H](C#N)[C@H](c2ccccc2-c2ccc(C(=O)N(C)C)cc2)[C@H]1CO	-18
CNC[C@H]1OCCCC[C@H](C)Oc2ccc(NS(=O)(=O)c3ccc(F)cc3)cc2C(=O)N([C@H](C)CO)C[C@H]1C	95
CC1(C)C2CC[C@]3(C)[C@H](C(=O)C=C4[C@@H]5C[C@@](C)(C(=O)O)CC[C@]5(C)CC[C@]43C)[C@@]2(C)CC[C@@H]1OC(=O)CCC(=O)O (stereo partly drawn)	18&9

# Next entries.
SMILES	Tg IFNy HTS
COc1ccc(CN2CCCC(C(=O)c3ccc(Cl)cc3)C2)cc1Cn1cccn1 (stereo not drawn)	-4
Cn1c(SCc2ccc3nc(C(F)(F)F)ccc3c2)nnc1C(F)(F)F	-40
CC(C)c1cc(C(=O)N(C)Cc2cnn(-c3ccc(F)cc3)c2)n(C)n1	-52
CN(C)c1ccc(-c2nnc(-c3cccnc3)o2)cc1	12
COc1ccc(-c2nc(N3CCN(c4ccccn4)CC3)c3ccccc3n2)cc1	-31
CN(C)CC(=O)N1CCCn2c(nnc2Cn2cccn2)C1	-2
COc1ccc(CNC(Cc2ccsc2)c2ccc(C)cn2)cc1OC (stereo not drawn)	11
CC(C)c1ccc(C(=O)NCC2(O)CCCNCC2)c(=O)n1C (stereo not drawn)	-11
CNc1ncc(-c2ccc(CO)cc2)c(-c2ccc(C)cc2)n1	-14
CC(=O)N1CCC(N2CCN(c3ccncc3F)CC2)CC1	0
O=C(C[C@H]1CC[C@H]2[C@@H](COC[C@@H](O)CN2Cc2cccc(Cl)c2)O1)NCc1cccc(F)c1	-27
COc1cccc(C2CC(c3ccccc3O)=NC3(CCN(C(C)C)CC3)N2)c1O (stereo not drawn)	116

# Remaining list, next part.
SMILES	Tg IFNy HTS
COc1cccc(NC(=O)C[C@H]2CC[C@H]3[C@@H](COc4ccc(NS(=O)(=O)c5cccc(F)c5)cc4C(=O)N3C)O2)c1	2
COc1ccc(CN2CCN(c3c(F)cccc3C(O)c3nccn3C)CC2)cc1 (stereo not drawn)	-3
O=C1CC(c2cnc(-c3ccco3)nc2)c2cnn(Cc3cccnc3)c2N1 (stereo not drawn)	83
CCn1c(CSc2ccccc2)nc2ccccc21	11
CCN(CC)CC1CN(C(=O)Cc2ccsc2)Cc2nccn2C1 (stereo not drawn)	2
CC(CC(F)(F)F)NC1CCN(S(=O)(=O)c2ccccc2)CC1 (stereo not drawn)	-3
O=C(c1cncc(Oc2ccccc2CN2CCOCC2)n1)N1CCCC1	-38
COc1ccc(CNCC2OCCc3cn(CC4CCOCC4)nc32)cc1 (stereo not drawn)	-1
CCN(Cc1noc(CC(C)C)n1)C(=O)c1cn2c(n1)CNCC2	-3
CC(C)OCCN1CCN(C(=O)C23CC4CC(C2)CC(n2cncn2)(C4)C3)CC1	7
C[C@@]1(O)[C@H](O)[C@@H](CO)O[C@H]1n1cnc2c(NC3CCCC3)nc(Cl)nc21	15
Cc1occc1C(=O)N1C[C@H]2OC(=O)N(CCc3cccc(Cl)c3)[C@H]2C1	-5

# Continued:
SMILES	Tg IFNy HTS
Cc1cccc(Nc2ncccc2C(=O)O)c1C	30
Cc1ccccc1S(=O)(=O)N1CCC2(CC(n3ccnc3)CO2)C1 (stereo not drawn)	5
Cc1nc(N2CCCC2)nc2c1CCN(c1ncc(F)cn1)CC2	-86*
CN1CCN(C)C2(CCN(C(=O)c3csnn3)CC2)C1=O	-6
Cc1ccc(S(=O)(=O)Nc2ccc3c(c2)C(=O)N([C@H](C)CO)C[C@@H](C)[C@H](CN(C)S(=O)(=O)c2cccs2)OCCCC[C@@H](C)O3)cc1	-131*
Cc1nc(-c2ccc(F)cc2)sc1-c1ccc(SCc2ccc(Br)cc2)nn1	0
Cc1ccc(Nc2nc(C(=O)NCc3ccco3)nc3ccccc23)cc1	-60
CN(C)C(=O)c1cccc(-c2ccc(C3[C@@H]4CN(C(=O)CN5CCOCC5)C[C@H]3N4)cc2)c1 (stereo partly drawn)	-18&17
CC(c1ccccc1)n1nnnc1N1CCC2(CCCO2)CC1 (stereo not drawn)	-2
O=C(c1ccncc1)N1C[C@@H]2[C@H](c3ccccc31)[C@@H](CO)N2Cc1ccccc1F	6

# A portion of the library. The share of hits here may be higher or lower than overall.
